High-throughput results as filed in PubChem BioAssay.
MgrA-DNA mod: S. aureus MgrA activity modulators, primary screen, biochemical, S. aureus Newman, fluorescence polarization. MgrA-DNA binding. inhibition, %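 (about 10 µg/mL by stock and volumes)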. 84,000 compounds, 0.13% hits. AID 602314, 2012;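 active means above 50% in either of two replicates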;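 further: 0% = protein plus DNA without compound and 100% = DNA alone without protein; higher means less MgrA bound to DNA so lower polarization; one replicate is shown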
Sa helicase inh: inhibitors of S. aureus replicative helicase, primary screen, biochemical, fluorescence unwinding readout. 120,000 compounds, 0.05% hits. purified S. aureus helicase, fluorescence unwinding assay; about half of the hits fall short of the stated cut. AID 485395, 2010. inhibition, %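 (tested at about 80 µM)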;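 active means both duplicates at 50% or more, or one of them with a favoured structure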;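 further: 0% = mean of negative control wells and 100% = mean of positive control wells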
Active calls of the source: *; . = not tested or not shown; & = joins results of further samples.

The opening 7 compounds, ahead of the listing:
SMILES | MgrA-DNA mod | Sa helicase inh
O=C1NC(=O)C2(OC(=O)C(=O)/C2=C(/O)c2ccccc2)C(=O)N1 | -5.5 | -15.0
Cc1cc(C)[n+]2c(-c3ccccc3)csc2n1 | -0.8 | -1.0
O=C1NC(=O)C(=Cc2ccco2)C(=O)N1 | 8.1 | .
CCn1nc(-c2cccnc2)nc2c(=O)n(C)c(=O)nc1-2 | . | -20.0
Cc1cc(/C=C2\C(=O)NC(=O)N(c3ccc(F)cc3)C2=O)c(C)n1-c1ccc(C(=O)O)cc1 | 0.4 | .
NC(=O)CN1CCCC1=O | -1.9&1.2 | .
OC(c1cccs1)(c1cccs1)C1CN2CCC1CC2 (centres undefined) | -2.4 | -16.0

The listing, previewed entries included:
SMILES | MgrA-DNA mod | Sa helicase inh
O=C1NC(=O)C2(OC(=O)C(=O)/C2=C(/O)c2ccccc2)C(=O)N1 | -5.5 | -15.0
Cc1cc(C)[n+]2c(-c3ccccc3)csc2n1 | -0.8 | -1.0
O=C1NC(=O)C(=Cc2ccco2)C(=O)N1 | 8.1 | .
CCn1nc(-c2cccnc2)nc2c(=O)n(C)c(=O)nc1-2 | . | -20.0
Cc1cc(/C=C2\C(=O)NC(=O)N(c3ccc(F)cc3)C2=O)c(C)n1-c1ccc(C(=O)O)cc1 | 0.4 | .
NC(=O)CN1CCCC1=O | -1.9&1.2 | .
OC(c1cccs1)(c1cccs1)C1CN2CCC1CC2 (centres undefined) | -2.4 | -16.0
NC(=O)c1cc([N+](=O)[O-])cc([N+](=O)[O-])c1 | 12.2 | .
Cc1nccc2c1[nH]c1ccccc12 | -3.0 | .
CN1C2CCC1CC(=NOC(=O)c1ccc(Cl)cc1)C2 | 0.5 | .
O=C1NC(=O)C(=Cc2ccncc2)C(=O)N1 | 0.6 | .
COc1cc(C=C2C(=O)N(C)C(=O)N(C)C2=O)ccc1OCCOc1ccccc1 | -1.6 | .
CN1C(=O)CC(c2ccccc2)Nc2ccccc21 (centres undefined) | -4.9 | .
C=C[C@H]1CN2CC[C@H]1C[C@H]2[C@H](O)c1ccnc2ccccc12 | 1.0 | .
Cc1cc(OC(=O)N(C)C)nc(-c2ccc(F)c(Cl)c2)n1 | -0.3 | .
C/C=C(/C)C(=O)O[C@H]1C(C)=C2[C@H]([C@@H]1OC(=O)CCCCCCC)[C@@](C)(OC(C)=O)C[C@H](OC(=O)CCC)[C@@]1(O)[C@H]2OC(=O)[C@@]1(C)O | 0.0 | .
OC1CCCCC1N1CCC(c2ccccc2)CC1 (centres undefined) | 0.9&0.3 | .
C/C=C(\C)CN(C)CCc1ccccn1 | 0.6 | 14.0
CCOc1ccc(-n2c(CN(CC)CC)nc3ccccc3c2=O)cc1 | 3.1 | 8.0
Nc1nnc(CCN2CCCC2)s1 | -1.2 | -5.0
c1ccc(NC2=NCCCS2)cc1 | . | 13.0
OCCCCNC1CCCCC1 | -1.6 | 4.0
NC(Cc1ccccc1)c1ccc2c(c1)OCCO2 (centres undefined) | -3.3 | 8.0
CCOC(=O)c1[nH]c2ccc(OC)cc2c1C(SCC(=O)O)c1ccc(C(F)(F)F)cc1 (centres undefined) | 1.5 | 5.0
COc1cc(C=C(C#N)C#N)ccc1O | 0.6 | 9.0
Cn1cnc(-n2oo2)c1C#N | 4.5 | .
C/C(=C\c1ccccc1[N+](=O)[O-])[N+](=O)[O-] | 3.4 | .
COc1ccc(-n2c(=O)[nH]c3ccccc3c2=O)cc1OC | . | 9.0
CN1CCCN(C(=O)c2cccnc2Cl)CC1 | -2.5 | -19.0
COC(=O)C(O)(c1c[nH]c2ccccc12)C(F)(F)F (centres undefined) | . | 4.0
COCc1cc(OC(=O)N(C)C)nc(SC)n1 | 1.2 | .
NP(N)(=O)C12CC3CC(CC(C3)C1)C2 | . | 7.0
COc1ccccc1Cn1c(N)c(C(N)=O)c2nc3ccccc3nc21 | . | 0.0
COc1cc(CN2CC3CC(C2)c2cccc(=O)n2C3)cc(Br)c1O (centres undefined) | . | 8.0
N#CC(C#N)=Cc1ccc(Cl)s1 | . | 18.0
CC(=O)N(C1=NCCCS1)c1ccccc1F | 18.4 | -2.0
CCOc1ccc(C2SCC(=O)Nc3c2c(=O)[nH]n3C2CCCC2)cc1 (centres undefined) | 0.8 | 6.0
O=C(CSC(c1ccccc1)c1ccccc1)Nc1ccccc1 | -2.0 | 6.0
N#CC(C#N)=Cc1ccc(O)c(Cl)c1 | 2.0 | 24.0
CC(C)(C)c1ccc(OCCOc2cccc(C=C3C(=O)NC(=S)NC3=O)c2)cc1 | 21.0 | .
CCSc1nc2ccccc2c(=O)n1-c1cccc(OC)c1 | 0.5 | 7.0
Cc1nc2ccccc2c(=O)n1-c1ccccc1 | -4.0 | .
COc1ccc(CCNC2CCCCC2C)cc1OC (centres undefined) | -2.4 | 7.0
N#CCSc1ccccc1NC(=O)CN1CC=C(c2ccccc2)CC1 | . | -125.0
Cc1cccc(CN2CCN(Cc3cccc(C)c3O)CC2)c1O | -1.9 | 7.0
C#CCN=Cc1c(O)[nH]c(=O)[nH]c1=O | . | -55.0
c1ccc2c(CN3CCNCC3)cccc2c1 | -0.4 | 2.0
CN1CCC(NCCO)CC1 | -1.6 | 10.0
O=C1c2ccccc2C(=O)c2ccccc21 | 1.1 | .
CCCCCCCCCCCCCCCCOC[C@H](COP(=O)([O-])OCC[N+](C)(C)C)OC(C)=O | 0.3 | .
COc1cccc2c(CCN)c[nH]c12 | -0.6 | -3.0
O=C(COc1ccc(S(=O)(=O)N2CCOCC2)cc1)N1CCN(Cc2ccc3c(c2)OCO3)CC1 | 0.7 | 29.0
Cc1ccc(N2C(=O)NC(=O)/C(=C/c3ccc(-c4cccc(C(=O)O)c4)o3)C2=O)cc1 | 6.7 | .
CCc1ccc(N2Cc3ccccc3C2=N)cc1 | -2.5 | -38.0
C=CCC1CCCCC1NC1CCCCC1 (centres undefined) | -0.1 | 6.0
CCC1=NP(N2CCN(C)CC2)(N2CCN(C)CC2)=NC(N2CCN(C)CC2)=C1C | . | 6.0
CN(C)C(=O)Oc1ccnc(SCc2ccc(Cl)cc2Cl)n1 | 3.3 | .
CC(C)(C)C(=O)C(Oc1ccc(Cl)cc1)n1cncn1 (centres undefined) | . | 19.0
CC(C)NS(=O)(=O)c1ccc(OCC(=O)N2CCN(Cc3ccccc3)CC2)cc1 | . | -19.0
O=c1ccc2cc(O[C@@H]3OC(CO)[C@@H](O)[C@@H](O)C3O)c(O)cc2o1 (some centres undefined) | 6.0 | .
The results go on.
SMILES | MgrA-DNA mod | Sa helicase inh
CN1C2CCC1CC(NCCc1ccccc1)C2 (centres undefined) | . | -6.0
Cc1ccc(C2N3CCCN23)cc1 (centres undefined) | . | 13.0
Cc1nc2ccccc2c(=O)n1-c1cccc(O)c1 | 5.0 | 1.0
CCCCn1c(C)c(C(=O)OCC)c2cc(OC(=O)c3cccc4ccccc34)c3ccccc3c21 | 0.8 | .
Cn1c(O)c(C=NC2CCCCCC2)c(=O)[nH]c1=S | 1.2 | 2.0
CC1=C(C(=O)Nc2ccccc2)SCCO1 | -3.5 | 9.0
CCN1CCN(CC2=CCC3CC2C3(C)C)CC1 (centres undefined) | -3.7 | 12.0
COC(=O)C1=C(C)OC(N)=C(C#N)C12C(=O)N(C)c1ccccc12 (centres undefined) | 1.4 | -21.0
CCc1ccc(NC2=NCCCS2)cc1 | . | 4.0
NCCc1ccc2c(c1)OCCO2 | . | -10.0
CCC1(O)C(=O)OCc2c1cc1n(c2=O)Cc2cc3ccccc3nc2-1 (centres undefined) | 3.7 | .
CCc1ccc(C=C2C(=O)N(C)C(=S)N(C)C2=O)cc1 | 22.2 | 14.0
O=C(CN1CCOCC1)Nc1ccc(Cl)cc1C(=O)c1ccccc1Cl | -2.0 | .
COc1ccccc1CNc1cnn(C23CC4CC(CC(C4)C2C(=O)O)C3)c(=O)c1Cl (centres undefined) | . | 13.0
Cc1ccc(C2C(C#N)=C(N)Oc3c2c(=O)oc2ccccc32)o1 (centres undefined) | 7.2 | 12.0
CCOC(=O)c1c(C)n(C2CC2)c2ccc(O)cc12 | 3.3 | .
C[N+]1(CCCl)CC[N+](C)(CCCl)CC1 (centres undefined) | -1.5 | 1.0
CC(C)(N)Cc1ccc(Cl)cc1 | . | 7.0
COC(=O)[C@@H](N)CCCN=C(N)N[N+](=O)[O-] | -0.9 | .
Cc1nnc(-c2ccccc2)o1 | -3.2 | 2.0
CCc1nc2ccccc2c(=O)n1-c1ccccc1Cl | 2.5 | 4.0
O=[N+]([O-])/C=C/c1cc2c(cc1[N+](=O)[O-])OCO2 | 1.4 | .
COc1ccc(Br)cc1CN1CCN(C(=O)Cc2ccccc2)CC1 | 1.1 | 15.0
NC(N)=NC(N)=Nc1ccc(Cl)cc1 | -2.2&7.0&0.3 | .
O=C1CSC(c2ccccc2)c2c(n(C3CCCC3)[nH]c2=O)N1 (centres undefined) | . | 1.0
C=CCc1ccc2c(c1)OCO2 | 1.1 | .
Cc1ccc(-n2c(C)nc3cc(Cl)ccc3c2=O)cc1Cl | 2.0 | .
CCOP(=S)(OCC)C(O)c1ccccc1 (centres undefined) | 0.2 | 12.0
CCCCOC(=O)c1cc(-c2ccc(C=C3C(=O)NC(=O)NC3=O)o2)ccc1Cl | -2.5 | .
O=P1(Nc2ccc(F)cc2)COc2ccccc2OC1 | 1.4 | 4.0
COc1cc2c(cc1OC)CNCC2 | . | -19.0
C[N+](C)(C)CCOC(=O)c1ccccc1 | -2.1 | 16.0
C=C1C/C(=C/C)C(=O)O[C@@H]2CCN3CC=C(COC(=O)[C@]1(C)O)[C@H]23 | -0.8 | .
CN(C)C(=O)Oc1cc(=O)oc2ccccc12 | -0.3 | .
Cc1ccc(NC2=NCCS2)cc1C | -2.0 | .
CC(C)=CC1C(C(=O)OCN2C(=O)C3=C(CCCC3)C2=O)C1(C)C (centres undefined) | 1.7 | .
Clc1cccc(C2NCCc3[nH]cnc32)c1 (centres undefined) | 3.0 | .
OC1CCN(CCc2ccccc2)CC1 | -1.8 | 4.0
O=C(Cc1ccccc1)N1CCN(Cc2ccccc2)CC1 | -3.4 | .
C=C1C2C[C@@]3(C4CC5C6(C3C[C@@H]2O)[C@@H](O)CC[C@@]5(C)CN(CC)[C@H]46)[C@@H]1O (some centres undefined) | -0.1 | .
CC(C)c1ccccc1NC1=NCCS1 | 0.3 | .
Cc1ccc(CN(C)C)c(OC(=O)N(C)C)c1 | 0.8 | 6.0
CC(C)[N+](C)(CCC(C(N)=O)(c1ccccc1)c1ccccc1)C(C)C | 1.2&-5.2 | .
C[C@@H]1C(=O)OC2[C@H](O)C34[C@@H]5OC(=O)[C@@]3(O[C@@H]3OC(=O)[C@H](O)[C@@]34[C@H](C(C)(C)C)[C@H]5O)[C@]21O (some centres undefined) | 0.3 | .
COC(=O)c1cc(C=C(C#N)C#N)cn1C | . | -21.0
Cc1ccccc1CN1CCN(c2ccc(Cl)cc2)CC1 | -2.0 | 2.0
O=C1NC(=O)C(c2ccccc2)C(=O)N1 | 0.1 | 0.0
COC(=O)CC1=C(C(=O)OC)C2(C(=O)Nc3ccccc32)C(C(=O)OC)=C(N)O1 (centres undefined) | 1.7 | 3.0
C1=C(c2c[nH]c3ccccc23)CCN(Cc2ccccc2)C1 | . | 7.0

5 of the compounds above, tab-delimited.
canonical_smiles	MgrA-DNA mod	Sa helicase inh
Clc1cccc(C2NCCc3[nH]cnc32)c1 (centres undefined)	3.0	.
OC1CCN(CCc2ccccc2)CC1	-1.8	4.0
O=C(Cc1ccccc1)N1CCN(Cc2ccccc2)CC1	-3.4	.
C=C1C2C[C@@]3(C4CC5C6(C3C[C@@H]2O)[C@@H](O)CC[C@@]5(C)CN(CC)[C@H]46)[C@@H]1O (some centres undefined)	-0.1	.
CC(C)c1ccccc1NC1=NCCS1	0.3	.

These rows are one share of the data; count on the stated rates, not on these rows.
